# Polio RdRp inh – poliovirus RNA polymerase inhibition | 0.66% of 150,000 active | poliovirus polymerase elongation, fluorescence polarization; stronger effect = lower value | P03300 | % elongation, % (compound at 16.7 µg/mL); in the data active = % elongation below about 90%; note: some results filed as inactive read as strong as hits
# Target sequence (P03300 1749-2209 limits assumed): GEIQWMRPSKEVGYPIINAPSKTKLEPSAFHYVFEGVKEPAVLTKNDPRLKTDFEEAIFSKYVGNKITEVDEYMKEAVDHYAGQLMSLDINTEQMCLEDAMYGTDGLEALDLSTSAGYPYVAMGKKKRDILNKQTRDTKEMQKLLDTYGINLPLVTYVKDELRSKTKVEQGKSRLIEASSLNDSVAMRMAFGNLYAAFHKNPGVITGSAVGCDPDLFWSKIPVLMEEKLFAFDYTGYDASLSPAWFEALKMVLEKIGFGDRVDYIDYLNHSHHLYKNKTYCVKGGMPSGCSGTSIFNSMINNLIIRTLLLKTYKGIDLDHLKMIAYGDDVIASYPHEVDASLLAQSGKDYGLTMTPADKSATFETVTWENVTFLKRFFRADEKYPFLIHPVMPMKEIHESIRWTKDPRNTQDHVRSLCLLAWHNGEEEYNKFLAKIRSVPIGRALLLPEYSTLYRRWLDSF
# MenB inh – blocks the Mycobacterium tuberculosis MenB enzyme; MenB enzyme assay, absorbance read-out; some hits fall short of the stated cut; inhibition, %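 (about 12 µg/mL by stock and volumes)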; 0.43% of 100,000 active; AID 540299;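 active = mean of two replicates above 30%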;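 note: 0% = no compound and 100% = wells with inactive enzyme; the first replicate is given; strong numbers were not always called active; inactives centre near -10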
# Target sequence (P9WNP5 whole entry, looked up): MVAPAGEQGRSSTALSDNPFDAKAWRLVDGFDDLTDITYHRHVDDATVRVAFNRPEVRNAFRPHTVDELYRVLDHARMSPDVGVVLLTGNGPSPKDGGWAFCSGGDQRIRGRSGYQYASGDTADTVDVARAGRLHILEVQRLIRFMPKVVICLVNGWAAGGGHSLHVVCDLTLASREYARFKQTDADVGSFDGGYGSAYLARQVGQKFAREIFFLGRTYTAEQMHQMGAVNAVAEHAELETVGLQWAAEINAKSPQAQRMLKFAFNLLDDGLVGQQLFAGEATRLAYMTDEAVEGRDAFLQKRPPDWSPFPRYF
# Mtb MbtI inh – MbtI salicylate synthase inhibition; purified MbtI enzyme, fluorescence intensity read-out; AID 493033; 0.89% of 100,000 active; inhibition, %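 (about 17 µg/mL by stock and volumes)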; P9WFX0;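 active = above 50% in both replicates, above 80% if mildly self-fluorescent; inactive = the rest, strongly fluorescent compounds included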;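 note: 0% = mean of negative and 100% = mean of positive controls; one replicate is shown; some compounds called inactive have numbers as strong as hits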
# Polio RdRp inh intensity – also measured in Polio RdRp inh; calls as there; % elongation; measured here: total intensity read-out; formula for this scale not given here;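 total fluorescence in place of polarization; lower means less elongation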
# An asterisk follows results filed as active; nt = no result given. Outcome played no part in choosing rows. Share with any hit: about 1.8%.
Structure	Polio RdRp inh intensity	MenB inh	Mtb MbtI inh	Polio RdRp inh
Cc1ccc(Nc2nc(CSc3nnc(-c4ccccc4)o3)cs2)cc1	103	-20	23	100
O=C(COC(=O)c1ccc(NS(=O)(=O)c2cccs2)cc1)Nc1ncc(Br)s1	103	-16	13	102
CCOC(=O)C(Cc1ccccc1)C(=O)Nc1ccccc1C (configuration not stated)	107	-13	nt	102
CCOC(=O)N1CCC(NC(=O)CN2N=C(c3ccc(Cl)cc3)CCC2=O)CC1	103	-16	-55	101
CSc1nnc(C2CCN(C(=O)c3cc(F)cc(F)c3)CC2)n1C	102	5	-6	100
O=C(CN(Cc1ccc(Cl)cc1Cl)S(=O)(=O)c1ccccc1)N1CCCC1	104	-20	nt	102
CCC1Oc2ccc(C)cc2N(CC(=O)N(Cc2cccnc2)Cc2cccc(OC)c2)C1=O (configuration not stated)	101	-42	-10	106
CCCN(Cc1cc2cccc(C)c2[nH]c1=O)C(C)=O	102	-62	82	104
CC1(C)C2CC=C(/C=N/NC(=O)c3cccc(S(=O)(=O)N4CCOCC4)c3)C1C2 (configuration not stated)	104	-20	19	105
COc1cccc(OCC2COS(=O)O2)c1 (configuration not stated)	81*	-43	0	85*
CCOc1ccc(NC(=O)CC2C(=O)N(c3ccccc3)C(=S)N2CCCN2CCN(C)CC2)cc1 (configuration not stated)	107	8	7	102
COc1ccc(C)cc1NC(=O)COC(=O)[C@@H]1CCCN1C(=O)OC(C)(C)C	103	-44	-1	99
Cc1onc(-c2ccccc2)c1C(=O)NC12CC3CC(CC(C3)C1)C2	104	-10	-7	102
Cn1ncc(N2CCN(C(=O)c3ccc(Cl)cc3)CC2)c(Cl)c1=O	103	-14	-4	100
CC1CC(OCC(O)CN)CC(C)(C)C1 (configuration not stated)	106	-1	-2	104
CCC(C)NC(=O)c1ccccc1N (configuration not stated)	94	-31	109	104
CCc1cccc(NC(=O)CN(C2=NC3CS(=O)(=O)CC3S2)c2cccc(C)c2)c1 (configuration not stated)	100	-11	-5	100
O=C(NC1CCCCC1)OCC(F)(F)F	101	-3	6	102
Cn1ccnc1SCC(=O)c1c[nH]c2ccccc12	103	-19	-3	101
CC(C)Cn1nc(C(=O)N2CCN(Cc3nc4ccccc4s3)CC2)c2ccccc2c1=O	106	-31	6	103
Cc1c(C)c(C)c(CN)c(C)c1C	110	-5	-3	109
O=C1C=C(NCc2ccc(Cl)cc2)CCC1	103	-10	7	100
CCOC(=O)c1cc(-c2ccccc2)n(-c2cccc(C(=O)N3CCCC3)c2)c1C	99	-12	-1	104
CCn1c(O)c(C(C)=NCc2ccccc2CN(C)C)c(=O)n(CC)c1=S	110	-8	0	109
CCOC(=O)C1=C(NC(=O)c2ccccc2)c2ccccc2CC12CCCC2	108	-20	nt	104
COc1ccc(C(=O)O)cc1Br	103	-9	nt	102
COc1ccc(C(=O)Oc2csc(=S)n2C(=O)c2ccc(OC)cc2)cc1	114	-5	nt	103
CSc1ncccc1C(=O)NCC1CCCCC1	108	8	-2	104
O=C(Cn1nnc(-c2ccccc2)n1)OCC(=O)N1CCc2ccccc2C1	96	5	-2	91
C=CCn1c2[n+](c3ccccc3c1=O)CCCCC2	107	nt	-1	104
S=C(NCCc1ccccn1)Nc1ccccc1	107	4	-2	101
N#Cc1ccc(COC(=O)c2ccco2)cc1	106	nt	-4	103
CCCCOC(=O)Nc1nccs1	nt	10	-4	nt
CCCCn1c(SCC(=O)N2CCC(C)CC2)nc2cc(S(N)(=O)=O)ccc21	95	-32	-4	103
COc1ccc(C(=O)OCc2cn3cc(Cl)ccc3n2)c(OC)c1OC	109	-5	0	102
Cc1ccc(O)c(CNn2cnnc2)c1	106	3	nt	104
CC(=O)N1CCN(S(=O)(=O)c2cccc(C(=O)NCC34CC5CC(CC(C5)C3)C4)c2)CC1	107	-17	8	106
Nc1cc(=O)[nH]c(=O)n1-c1ccc(Cl)cc1	99	-7	1	104
COc1ccc(C2NC(=O)c3ccccc3N2C)cc1 (configuration not stated)	95	-12	107	101
O=C(Nc1ccc(Cl)cc1)NC1CCCCNC1=O (configuration not stated)	109	-1	-4	103
O=C(CCn1nc(-c2ccc(Cl)cc2)ccc1=O)N1CCC2(CC1)OCCO2	101	0	26	103
CCOC(=O)c1cccc(NC(=O)Cn2c(CC(=O)N3CCCC3)nc3ccccc32)c1	104	-37	-2	104
Cc1ccc(OCC(=O)N2CCN(CC3CC4C=CC3C4)CC2)cc1 (configuration not stated)	106	1	nt	99
N#Cc1c(NC(=O)c2cccs2)sc2c1CCCCC2	104	-8	-9	102
COc1cccc(C2c3c(C)nn(C)c3NC(=O)C2NC(=O)c2ccccc2)c1 (configuration not stated)	104	-20	-4	99
Cc1cccc(C)c1NC(=S)N1CCCc2cccc(C)c21	106	-1	-9	109
CNC(=O)c1ccc(N2CCCC2=O)cc1	99	3	-3	100
CCN(CC(=O)c1ccccc1Cl)C1CCCCC1	99	-21	-5	100
O=C1CC(Cc2ccc(Cl)cc2)C(=O)N1c1ccccn1 (configuration not stated)	100	6	17	100
Cc1ccc(CNC(=O)Nc2nnc(N3CCCC(C)C3)s2)cc1 (configuration not stated)	109	-20	-11	105
O=C(c1cccs1)C1CN(Cc2ccccc2)CCC1(O)c1cccs1 (configuration not stated)	95	-11	-22	97
CC1CN(C(=O)c2ccc(COCC(F)(F)F)o2)CC(C)O1 (configuration not stated)	106	2	-6	102
CS(=O)(=O)c1nc(-c2ccc(Br)cc2)n[nH]1	101	15	90*	100
Cc1sc2ncn(CC(O)CO)c(=O)c2c1C (configuration not stated)	100	-63	12	103
CCNC(=S)N1CCOCC1	96	-23	nt	103
C=C1N(c2cccc(C(F)(F)F)c2)C(=O)OC1(C)C	103	-65	-8	106
Cc1cc(C)c(NC(=O)c2nccnc2CO)c(C)c1	105	8	0	102
CCC(=O)N1CCc2cc(Br)cc(S(=O)(=O)N3CCC(C(=O)NCCC(C)C)CC3)c21	101	-14	-4	102
OCC1OC(n2nnc3ccccc32)C(O)C(O)C1O (configuration not stated)	100	13	-6	101
C=CCN(CC=C)c1nc(-c2ccccc2)nc2ccccc12	98	-36	27	99

# Grouped by structure: those above containing an aryl thioether with sulfur outside any ring
Structure	Polio RdRp inh intensity	MenB inh	Mtb MbtI inh	Polio RdRp inh
Cc1ccc(Nc2nc(CSc3nnc(-c4ccccc4)o3)cs2)cc1	103	-20	23	100
CSc1nnc(C2CCN(C(=O)c3cc(F)cc(F)c3)CC2)n1C	102	5	-6	100
Cn1ccnc1SCC(=O)c1c[nH]c2ccccc12	103	-19	-3	101
CSc1ncccc1C(=O)NCC1CCCCC1	108	8	-2	104
CCCCn1c(SCC(=O)N2CCC(C)CC2)nc2cc(S(N)(=O)=O)ccc21	95	-32	-4	103

# The list goes on:
Structure	Polio RdRp inh intensity	MenB inh	Mtb MbtI inh	Polio RdRp inh
CCCCCc1cc(C(=O)O)[nH]c1-c1ccccc1	102	-16	115	104
CC(=O)n1nccc1-c1nccnc1C	100	-5	2	107
CC1CCCN(S(=O)(=O)c2ccc3[nH]c(=O)cc(C(=O)NC(C)CCc4ccccc4)c3c2)C1 (configuration not stated)	104	6	-15	102
CC(C)(C)NC(=O)CSc1nnc(-c2cccs2)o1	100	-31	26	103
COC(=O)c1c(O)ccc(-c2ccc(NC(C)=O)cc2)c1C(=O)OC	103	3	-44	100
CCOc1ccc(N(CC)S(=O)(=O)N2CCCC(C(=O)N3CCc4ccccc43)C2)cc1 (configuration not stated)	103	4	-20	102
COc1ccc(-n2c(=S)[nH]c3cc(C(=O)N4CCC(C(N)=O)CC4)ccc3c2=O)cc1	100	-30	16	101
S=C(Cc1cccnc1)N1CCOCC1	103	6	-2	98
CC1CN(C(=O)N(C)C)CCN1C(=O)N(C)C (configuration not stated)	102	52	-3	100
Cc1cc(C(=O)COC(=O)Cc2coc3ccc4ccccc4c23)c(C)n1C1CC1	106	5	114	103
O=C1C=C(c2ccc(Br)cc2)OC(=O)C1C(=O)c1ccc(Br)cc1 (configuration not stated)	96	-1	7	103
O=C(NN1C(=O)/C(=C\C=C\c2ccco2)SC1=S)c1ccccc1O	nt	-110	-24	nt
Cc1nn(C)c(C)c1CNC(C)c1ccc(-n2ccnc2)cc1 (configuration not stated)	84	-7	8	91
Cn1c(CNc2ccc(Br)cc2)nc2ccccc21	107	nt	-7	103
Cc1ccc(N(C)S(=O)(=O)c2cc(-c3cc(C)no3)ccc2C)cc1	98	-21	5	101
CC1CN=C(NC2CCCCC2)S1 (configuration not stated)	98	nt	4	101
CC(c1nnc(SCC(=O)Nc2cccnc2Cl)n1Cc1ccccc1)N(C)C (configuration not stated)	109	-4	-12	106
CCn1nccc1NC(=O)COc1ccccc1OC	102	-2	-8	102
CCOC(=O)c1cnn2c1NC(c1ccc(C(C)C)cc1)CC2C(F)(F)F (configuration not stated)	101	-8	-15	100
Nc1cn(-c2ccccc2)nc1-c1ccccc1	95	-14	107	96
Cn1c(SCC(=O)N2CCCC(c3nc4ccccc4s3)C2)nc2ccccc21 (configuration not stated)	101	-23	19	98
FC(F)(F)c1ccc(Cl)c(NNC2=NCCCCC2)c1	104	-8	30	102
Cc1ccnc(NC(=O)c2ccc3c(c2)C(=O)N(Cc2ccco2)C3=O)c1	103	-6	-6	101
O=C(CO)Nc1cccc2nsnc12	101	6	8	105

# Whole records as entered above. Order of values: Polio RdRp inh intensity	MenB inh	Mtb MbtI inh	Polio RdRp inh
# Entry for O=C(CO)Nc1cccc2nsnc12 → 101	6	8	105
# Entry for CCn1nccc1NC(=O)COc1ccccc1OC → 102	-2	-8	102
# Entry for Cn1c(SCC(=O)N2CCCC(c3nc4ccccc4s3)C2)nc2ccccc21 (configuration not stated) → 101	-23	19	98

# New compounds follow
Structure	Polio RdRp inh intensity	MenB inh	Mtb MbtI inh	Polio RdRp inh
CCC(C)NC(=O)/C=C/c1ccc(C)cc1 (configuration not stated)	101	-16	7	103
COc1ccccc1NC(=O)CCC1CC(=O)OC1c1ccccc1 (configuration not stated)	101	-42	-9	105
Cn1c(CN2CC(c3ccccc3)CC2=O)n[nH]c1=S (configuration not stated)	103	-8	21	100
CCCS(=O)(=O)NCc1cn2c(C)csc2n1	95	-10	-2	99
CCN(CC)C(=O)Cn1c(=O)n(Cc2ccccc2)c(=O)c2c3c(sc21)CCC3	99	0	1	101
C=CCNC(=O)CSc1nnc(-c2ccc3nonc3c2)n1C	107	-23	4	103
Cc1cccc(C)c1NC1=NC(C)(CO)CS1 (configuration not stated)	113	0	-8	108
Cc1cccc(C2N3CC4(C)CN2CC(C)(C3)C4)c1 (configuration not stated)	102	7	-7	100
CC(C)Cc1nnc(N)s1	109	nt	-8	102
CCn1c(SCc2cc(=O)[nH]c3ccccc23)nnc1C1CC1	103	-44	6	102
COc1ccc(S(=O)(=O)Nc2cncc(C(=O)N3CCN(c4ccc(F)cc4)CC3)c2)cc1	100	1	-6	100
O=C1CC(Sc2ccc(Cl)cc2)C(=O)N1Cc1cccnc1 (configuration not stated)	101	-21	43	101
COC(=O)c1ccccc1NC(=O)Cc1ccc(Cl)cc1	110	-18	nt	104
CCCCNc1nc2c(S(=O)(=O)c3ccccc3)nnn2c2ccsc12	101	-7	-40	101
O=C(NCc1ccccc1)c1ccccc1OCc1nnc(-c2ccc(Cl)cc2)o1	102	-13	-18	102
Cc1ccc(NS(=O)(=O)N2CCCCC2)cc1	102	-75	-8	100
Cn1ccnc1S/C(=C/C=C(C#N)C#N)c1ccc(Cl)cc1	93	-127	20	101
Cc1nn(C)c(C)c1S(=O)(=O)N(CC(=O)N1CCCC1)c1ccc(C(C)C)cc1	107	3	-4	101
CNC(=O)Nc1cccc2cccnc12	102	-18	6	101
O=C(Nc1ccc(F)cc1)C1CCCN(c2ncccn2)C1 (configuration not stated)	101	17	-26	103
CCC1CSC(Nc2cccc(Cl)c2)=N1 (configuration not stated)	97	-1	1	99
CC(C)NC(=O)CCn1c(=O)sc2ccccc21	99	1	0	107
CC(C)(C)NC[C@H](O)COc1nsnc1N1CCOCC1	99	-3	-11	102
CC(C)OC(=O)C(C)Oc1ccc2c(-c3ccccc3)cc(=O)oc2c1 (configuration not stated)	103	-6	17	107
O=c1[nH]n(CC2COC3(CCCCC3)O2)c(=O)c2ccccc12 (configuration not stated)	104	-22	0	101
COC(=O)C1C(=O)N2CCCSC2=C(C#N)C1c1cccs1 (configuration not stated)	108	8	4	105
CN(Cc1ccccc1)C(=O)C1=CC(c2cccs2)=NS(=O)(=O)N1C	103	-17	-51	102
Cn1cnn(CN2CCCCC2)c1=S	108	5	2	109
Cc1ccc(CNC(=O)c2cc(C3CC3)nc3c2cnn3C(C)C)cc1	103	-9	10	107
CN1CCc2nc3sc(C(N)=O)c(N)c3cc2C1	103	-4	5	99
OC1c2ccccc2-c2ccccc2C1O (configuration not stated)	104	-4	3	103
O=C(CSc1ncnc2nc[nH]c12)c1ccc2ccccc2c1	98	11	nt	100

# Screening results (PubChem BioAssay)
